# Screening results deposited in PubChem by National Center for Advancing Translational Sciences (NCATS).
# Rango release inh: prevents RanGTP from dissociating the Rango-importin beta complex. O95149+P62826. Biochemical FRET Rango-importin beta, RanGTP-induced dissociation. Potency, µM (top dose mostly 46.1 µM), for inactives: at the highest dose activity change, negative = inhibition. 340,000 tested, 0.071% active; active means falling FRET ratio curve, often poorly fitted, with flat reads before Ran was added; inconclusive means other falling curves, or compound fluorescence or quenching; inactive means flat or rising ratio curve;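 also: potency is read from the fitted curve at half-maximal effect; % of control where 0% means no effect; nearly all actives have a fitted effect of over 45% in size; -100% = wells without RanGTP and RCC1; the record marks most hits as doubtful in a second field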
#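 Rango/importin beta premix (0.1/0.25 uM final), PBS + 1 mM DTT + 0.02% Tween-20 + 0.1% BSA; cpd 5 min RT; FRET pre-read; + RanGTP-RCC1 (0.6 uM Ran, 2 mM GTP, 0.2 uM RCC1); 45 min RT; FRET post-read, ex 430, em 486/530 nm.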
# miR-21 reporter: raises the signal of a miR-21 reporter; HeLa miR-21 FLuc reporter, luciferase, 48 h; Potency, µM (doses to about 38.3 µM), for inactives: at the highest dose reporter change, positive = more light; 340,000 tested, under 10 active; AID 2288; active = well fitted rising curve with a large enough effect; inconclusive = small, poorly fitted or top-dose-only effect; inactive = no such curve, though single readings can be large or run the other way;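 also: % of control where 0% means no effect; miR-21 action dims this reporter so a rising signal means less miR-21 action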
#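 HeLa miR-21-FLuc reporter line, endogenous miR-21; 2000 cells/well in DMEM/10% FBS; compound titration up to ~40uM final, 48 h, 37 degree Celsius; luciferase detection reagent, 15 min lysis, CCD luminescence.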
# Rango complex inh: Rango-importin beta binding inhibition; Q14974; Rango CFP/YFP FRET sensor + importin beta, 45 min; Potency, µM (top dose mostly 92.2 µM), for the others: at the highest dose inhibition of complex formation; 340,000 tested, 0.031% active; active = rising FRET ratio curve, often small or poorly fitted; inconclusive = mostly compound fluorescence or quenching in the first reads; inactive = flat curves in all reads;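 also: potency is read from the fitted curve at half-maximal effect; 0% = DMSO wells and 100% = buffer wells lacking importin beta; nearly all actives have a fitted effect of over 15% in size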
#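 Inhibition scored from the CFP 486 nm/YFP 530 nm FRET ratio 45 min after adding 0.125 microM importin beta to 50 nM Rango biosensor preincubated 5 min with compound (room temperature, PBS with DTT, Tween-20, BSA). No-importin wells as positive control.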
# GLA inh pH 4.5: blocks human alpha-galactosidase A at pH 4.5; AID 1467; P06280; activity change, negative = inhibition, % at 105 µM; purified enzyme, 4-MU-alpha-Gal fluorescence, pH 4.5; 230,000 tested, under 10 active; inconclusive = small, poorly fitted or top-dose-only inhibition, or a rising curve; inactive = flat fitted curve, though single readings scatter; no compound was filed as active;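 also: 0% = full activity with enzyme and -100% = basal without enzyme; dose as in the result columns while the protocol names 77 µM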
# Target sequence (P06280 whole entry, looked up): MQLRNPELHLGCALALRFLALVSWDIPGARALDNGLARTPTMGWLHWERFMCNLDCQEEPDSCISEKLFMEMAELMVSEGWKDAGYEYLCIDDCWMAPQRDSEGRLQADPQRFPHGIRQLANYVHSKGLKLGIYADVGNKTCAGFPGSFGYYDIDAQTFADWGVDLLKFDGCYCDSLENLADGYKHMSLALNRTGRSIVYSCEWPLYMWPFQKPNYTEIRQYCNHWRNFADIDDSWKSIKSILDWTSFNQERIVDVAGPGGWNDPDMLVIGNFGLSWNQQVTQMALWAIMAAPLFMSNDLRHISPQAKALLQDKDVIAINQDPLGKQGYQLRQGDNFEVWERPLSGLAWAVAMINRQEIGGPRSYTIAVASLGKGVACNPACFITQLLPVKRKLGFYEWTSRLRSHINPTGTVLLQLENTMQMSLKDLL
# The depositor's hits bear a star; ? = inconclusive; . = no result given; & = joins results of further samples; [ ] = dose if it differs, or a comment. A portion of the library. The share of hits here may be higher or lower than overall.
SMILES,Rango release inh,miR-21 reporter,Rango complex inh,GLA inh pH 4.5
CCCc1cc(=O)[nH]c2nnc(SCC(=O)Nc3nnc(SCC)s3)n12,0%,.,2.4%,.
Cc1cc(NC(=O)c2cc3ccccc3o2)cc(C)c1OCC(=O)N1CCOCC1,0%,-1%,?,-4
Cc1ccc2nc(-c3ccccc3)cc(C(=O)N3CCc4ccccc4C3)c2c1,-12%,-3%,-0.2%,0
Cc1nc(Nc2ccccc2)sc1C(=O)c1ccc(F)cc1,-12%,-48%,-1.9%,.
O=C(CSc1ccc(-c2ccco2)nn1)NCc1ccc(F)cc1,-4%,-7%,3.0%,4
Cc1ccc(-c2cc(C(=O)Nc3cc(C)ccc3C)[nH]n2)c(O)c1,3%,-49%,2.5%,0
O=C(/C=C\c1ccccc1)Nc1nccs1,17%,-42%,-4.0%,-7
CC(C)OP(=O)(OC(C)C)C(Nc1ccccc1)c1ccc2c(c1)OCO2 (stereo not given),17%,15%,3.3%,6
S=C(NCc1ccccc1)C(=S)NCc1ccccc1,-9%,.,0.9%,.
CCCCNC(=O)c1sc(=S)n2c1[nH]c(=O)c1ccccc12,-10%,2%,1.6%,-1
CCc1cccc(C)c1NC(=O)c1cc(C)oc1C,-8%,-1%,0.0%,-8
CCOC(=O)c1ccc(NC(=O)N2CCc3ccccc3C2)cc1,-6%,-8%,3.6%,.
Cn1c(=O)c(C(=O)CN2CCN(S(=O)(=O)c3ccccc3)CC2)c(N)n(Cc2ccccc2)c1=O,-7%,-3%,-6.0%,2
Cc1cc(NC(=O)C(C)SCC(=O)OCc2ccc(Cl)cc2Cl)no1 (stereo not given),2%,.,0.7%,.
Cc1ccc(OCC(=O)Nn2cnc3ccccc32)cc1,19%,-2%,-3.6%,5

# Reformatted: entries from further up
smiles: CC(C)OP(=O)(OC(C)C)C(Nc1ccccc1)c1ccc2c(c1)OCO2 (stereo not given)
  Rango release inh: 17% | miR-21 reporter: 15% | Rango complex inh: 3.3% | GLA inh pH 4.5: 6

smiles: S=C(NCc1ccccc1)C(=S)NCc1ccccc1
  Rango release inh: -9% | miR-21 reporter: . | Rango complex inh: 0.9% | GLA inh pH 4.5: .

smiles: CCCCNC(=O)c1sc(=S)n2c1[nH]c(=O)c1ccccc12
  Rango release inh: -10% | miR-21 reporter: 2% | Rango complex inh: 1.6% | GLA inh pH 4.5: -1

smiles: CCc1cccc(C)c1NC(=O)c1cc(C)oc1C
  Rango release inh: -8% | miR-21 reporter: -1% | Rango complex inh: 0.0% | GLA inh pH 4.5: -8

# (listing goes on)
SMILES,Rango release inh,miR-21 reporter,Rango complex inh,GLA inh pH 4.5
CCn1nnnc1SCC(=O)NC1CCCC1,10%,-5%,-1.7%,8
C/C(=N\NC(=O)CN1CCOCC1)C(C)(C)C,-5%,-8%,0.3%,-13
CC(C)CCn1c(Oc2ccc(Cl)cc2)nc2c1c(=O)n(C)c(=O)n2C,15%,-1%,-0.4%,-2
O=C(c1ccccc1F)N1CCN(Cc2ccc3c(c2)OCO3)CC1,17%,1%,-1.3%,.
O=c1[nH]c(CN2CCN(Cc3ccc4c(c3)OCO4)CC2)nc2ccccc12,-8%,-2%,-1.7%,15
COc1cccc(C(=O)NCC(=O)N/N=C/c2c(C)[nH]c3ccccc23)c1,33%,5%,6.3%,.
COc1cc(-c2nnc(SCC(=O)N3CCOCC3)o2)cc(OC)c1OC,5%,5%,-0.4%,.
O=C(C[n+]1ccc2ccccc2c1)c1ccc(NC(=O)c2ccccc2)cc1,-1%,16%,-1.5%,-7
Cc1nc2ccccc2c(=O)n1/N=C/c1ccccc1F,-10%,-59%,-0.3%,.
O=C(Oc1ccccc1C(=O)N1CCOCC1)c1ccc(Br)cc1,-19%,0%,0.1%,-5
COc1ccc(OC)c2[nH]c(=O)c(CCNC(=O)c3ccc(S(=O)(=O)N(C)C)cc3)cc12,-3%,1%,-1.4%,-22
O=C(Nc1cc(N2CCOCC2)ncn1)NC1(C(F)(F)F)Oc2ccccc2O1,2%,-2%,6.0%,-7
CCCCN1C(=O)C(=O)N(CC(=O)Nc2sc(C)c(CC)c2C(=O)OCC)C1=O,-1%,.,-1.0%,.
c1ccc(-n2c(Cc3cn4ccsc4n3)nnc2N2CCOCC2)cc1,-20%,-2%,?,-1
O=S(=O)(NCCc1c[nH]c2ccccc12)c1ccc(F)cc1,0%,.,2.7%,.
Cc1ccc(N2CCN(C(=O)CNS(=O)(=O)c3ccc(Br)s3)CC2C)cc1 (stereo not given),5%,10%,1.7%,0
CCSc1nnc(NC(=O)CSc2nc3c(c(=O)n2-c2ccccc2)SCC3)s1,1%,-4%,-1.0%,-9
CCCCc1ccc(C2C(C#N)=C(N)SC(N)=C2C#N)s1,.,-6%,.,1
CC1(C)Cc2ccccc2-c2nnc(-c3ccccc3)n21,6%,-3%,5.4%,0
COc1cc(C2C(C#N)=C(N)OC3=C2C(=O)CC(C)(C)C3)c([N+](=O)[O-])cc1OC (stereo not given),?,-5%,?,7
CCN(CC)c1ccc(/C=C(\C#N)C(N)=O)cc1,?,-60%,?,-4
COc1ccc(C(=O)Nn2cnc3ccccc3c2=O)cc1[N+](=O)[O-],-10%,-6%,2.9%,.
COc1ccc(CNC(=O)C(=O)NCC2CCCN2S(=O)(=O)c2ccccc2)cc1 (stereo not given),0%,.,-0.2%,.
CCc1ccc(N=C2NC(=O)/C(=C/c3ccc(OCC(=O)O)c(OC)c3)S2)cc1,?,-5%,?,.
O=C(COc1ncnc2sccc12)N1CCN(c2ccccc2)CC1,2%,0%,-2.4%,1
O=C(C[C@@H]1C/C=C\CCCC(=O)OC[C@@H]2CCCN2C1=O)N[C@@H](CO)Cc1ccccc1,-2%,.,3.6%,.
C=COCCn1c(-c2nonc2N)nc2ccccc21,15%,5%,-3.5%,-7
CN(CC1COc2ccccc2O1)C(=S)Nc1ccccc1F (stereo not given),-3%,-24%,-2.7%,2
CCC(NC(=O)Cc1c(C)c2cc3c(cc2oc1=O)OC(C)(C)CC3)C(=O)O (stereo not given),-2%,-37%,4.9%,.
Brc1ccc(-c2cn3nc4c(nc3n2)CCCC4)cc1,?,-37%,?,-2

# 2 of these compounds, set out differently.
CC1(C)Cc2ccccc2-c2nnc(-c3ccccc3)n21
  Rango release inh = 6%
  miR-21 reporter = -3%
  Rango complex inh = 5.4%
  GLA inh pH 4.5 = 0

COc1cc(C2C(C#N)=C(N)OC3=C2C(=O)CC(C)(C)C3)c([N+](=O)[O-])cc1OC (stereo not given)
  Rango release inh = ?
  miR-21 reporter = -5%
  Rango complex inh = ?
  GLA inh pH 4.5 = 7

# (continued)
SMILES,Rango release inh,miR-21 reporter,Rango complex inh,GLA inh pH 4.5
O=C(CSS(=O)(=O)O)N1CCN(C(=O)c2ccoc2)CC1,?,-7%,0.4%,.
O=c1c2cnn(-c3ccccc3)c2nc(-c2ccco2)n1-c1ccccc1,-8%,19%,-2.5%,-10
COc1ccc(C(=O)O)cc1NC(=S)NC(=O)C(c1ccccc1)c1ccccc1,0%,2%,0.7%,.
CCCn1c(SCC(=O)N2CCCCC2)nnc1-c1ccco1,-1%,-3%,-1.0%,5
Cc1cc(C(C)(C)C)cc(S(=O)(=O)NCCc2ccncc2)c1C,4%,-14%,1.8%,.
CC(=O)Nc1ccc(NC(=O)C(C)OC(=O)CNC(=O)c2ccc(-c3ccccc3)cc2)cc1 (stereo not given),25%,.,1.4%,.
COc1ccc(N(Cc2cc(=O)[nH]c3ccccc23)C(=O)C(C)C)cc1,2%,-8%,1.2%,.
CN(CCCNC(=O)c1cc2c(Cl)nc3ccccc3c2s1)Cc1ccccc1,11%,-20%&0%,-0.3%,-15[21.1 µM]
C#CCCc1cocc1/C=[N+](\[O-])c1ccc(C(=O)OCC)cc1,-17%,.,?,.
Nc1nc(Cl)cc(N2CCCC2)n1,1%,-5%,-0.5%,-10
COc1ccccc1CN1C(=S)SC(C)(C)C1NO (stereo not given),3%,0%,1.0%,0
CC(=O)CC(CC(=O)NC1CCCCC1)c1ccccc1 (stereo not given),12%,.,0.4%,.
CC(=O)c1ccc(S(=O)(=O)N(C)CC(=O)Nc2cccc(S(=O)(=O)N3CCCC3)c2)cc1,1%,.,-0.2%,.
COc1ccc(NC(=O)COc2cc(C)cc(C)c2)cc1S(=O)(=O)N1CCCCC1,-16%,.,0.4%,.
Cc1ccccc1COc1ccc(/C=C(\C#N)C(N)=O)cc1,15%,-28%,0.5%,-4
Cc1cccc(NC(=O)/C(=C\c2ccco2)NC(=O)c2ccccc2)c1,-13%,-5%,-2.9%,-4
N#Cc1nc(COc2ccc(Cl)cc2)oc1N1CCCC1,-4%,-20%,-0.7%,1
C/C(=N\O)C(=O)NCc1ccncc1,1%,-5%,-3.0%,-4
Cc1ccccc1N(CC(=O)N1CCCCCC1)S(C)(=O)=O,-3%,-2%,-1.8%,.
CN1C(=O)CSC1=NCC12CC3CC(CC(C3)C1)C2,1%,-2%,2.6%,-3
COc1ccccc1/C=C/C1(C(=O)NC2CCCC2)CC(=O)N1c1ccc(F)cc1 (stereo not given),1%,?,-0.3%,-5
Cc1nn(CC(=O)NCCc2ccco2)c(=O)c2nn(-c3ccccc3)c(C)c12,-4%,-2%,0.8%,.
CC(=O)N1CCN=C1SCc1cccc(Cl)c1,-10%,-3%,?,.
CC(=O)CCC1CC(c2ccc(Cl)cc2)=NO1 (stereo not given),5%,.,6.4%,.
COc1ccc(Br)cc1/C=N/NC(=O)c1ccc2nc[nH]c2c1,3%,-1%,0.0%,.
O=C1C=C(NCc2ccccc2)CCC1,7%,-9%,2.3%,-6
COCCN(Cc1ccccc1)C(=O)Cc1ccc(OC)c(S(=O)(=O)N2CCOCC2)c1,-14%,.,4.5%,.
CCC(C(=O)Nc1ncccn1)(C(F)(F)F)C(F)(F)F,1%,-1%,0.7%,0
CC(=O)N(C)C1(c2nnnn2CCOC(=O)Nc2ccc(Cl)cc2)CCCCC1,-2%,-1%,-0.2%,-1
CC(C)OCCCNC(=O)c1cc(S(=O)(=O)N2CCc3ccccc32)cn1C,10%,5%,3.7%,.
O=C(COC(=O)/C=C/c1ccc(F)cc1)Nc1ccccc1-c1ccccc1,-2%,-4%,-0.2%,-2
O=c1[nH]c2cc3c(cc2cc1CN(Cc1ccccc1)Cc1nnnn1Cc1ccco1)OCCO3,?,-50%,?,2
CC1CC(C)CN(C(=O)CSCC(=O)O)C1 (stereo not given),-26%,-1%,-1.7%,0
COc1ccc(Cl)cc1C(=O)NCc1ccc2c(c1)OCO2,1%,-17%,7.4%,.
NS(=O)(=O)c1cccc(NC(=O)COC(=O)Cn2cc(C(F)(F)F)ccc2=O)c1,10%,.,-1.2%,.
CCC(=O)NC(c1ccc(OC)cc1)c1cc(Cl)c2cccnc2c1O (stereo not given),-1%,19%,0.8%,6
Cc1cc(/C=C2/NC(=O)N(Cc3ccccc3F)C2=O)c(C)n1-c1ccccn1,?,-4%,?,-4
Clc1ccc(-c2nc(N3CCCCC3)nc3ccccc23)cc1,?,-9%,?,1
COCCCNC(=O)c1ccccc1Sc1ccc(NC(C)=O)nc1,5%,-3%,-0.5%,4
CC(NC(=O)CCNS(=O)(=O)c1ccc2c(c1)oc(=O)n2C)c1ccccc1 (stereo not given),-16%,1%,-3.7%,.
CCOC(=O)c1ccc(S(=O)(=O)N(CCO)Cc2cc3cc(OC)c(OC)cc3[nH]c2=O)cc1,-1%,2%,0.8%,-1
Cc1c(C=NNC(=O)c2ccc(Br)cc2)c2ccccn2c1C(=O)c1ccncc1,-3%,.,9.1%,.
Cn1c(Sc2ccc(Br)cc2)c(C=O)c2ccccc21,1%,20%,0.2%,1
O=C(Cn1cc(C(=S)N2CCOCC2)c2ccccc21)N1CCOCC1,-5%,-7%,0.7%,0
C/C(=C/c1ccccc1)C(=O)N1CC(C)OC(C)C1 (stereo not given),0%,-4%,0.5%,-2
S=C(Nc1ccccc1Cl)N(CCCN1CCOCC1)Cc1ccccn1,2%,0%,-0.6%,0
O=C(Nc1ccc2c(c1)OCCO2)C1CCN(c2nnnn2-c2ccccc2)CC1,8%,-3%,-1.1%,3
Cc1cc(/C=N/NC(=O)c2cccs2)c(C)n1-c1cnccn1,1%,-52%,2.2%,6
N#CC1(NC(=O)COc2ccc3ccc(=O)oc3c2)CCCCC1,-10%,.,-3.1%,.
